From PubChem
Mtb H37Rv = M. tuberculosis H37Rv growth inhibitors, H37Rv strain (AID 1626). M. tuberculosis H37Rv growth inhibition; higher % means a stronger effect. one-dose inhibition, % at 10 µM; IC50 in µM for titrated hits. 220,000 compounds, 0.95% hits;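 active means confirmed in a dose series; inconclusive means inhibition above 80% but not taken into the dose series; inactive means below 80% or under 30% at every dose of the series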;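 further: bacteria incubated seven days before Alamar blue readout; 0% = bacteria only wells and 100% = bacteria with antibiotic wells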
RecA intein inh = inhibitors of M. tuberculosis RecA intein splicing | 290,000 compounds, 0.75% hits | P9WHJ3 | cell-free RecA intein splicing, fluorescence | inhibition, %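 (about 9 µM by stock and volumes)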; in the data active means inhibition above about 30%; inconclusive means no clear call, values can overlap the other calls;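 further: 0% = vehicle wells and 100% = reference inhibitor control wells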
Target sequence (P9WHJ3 whole entry, looked up): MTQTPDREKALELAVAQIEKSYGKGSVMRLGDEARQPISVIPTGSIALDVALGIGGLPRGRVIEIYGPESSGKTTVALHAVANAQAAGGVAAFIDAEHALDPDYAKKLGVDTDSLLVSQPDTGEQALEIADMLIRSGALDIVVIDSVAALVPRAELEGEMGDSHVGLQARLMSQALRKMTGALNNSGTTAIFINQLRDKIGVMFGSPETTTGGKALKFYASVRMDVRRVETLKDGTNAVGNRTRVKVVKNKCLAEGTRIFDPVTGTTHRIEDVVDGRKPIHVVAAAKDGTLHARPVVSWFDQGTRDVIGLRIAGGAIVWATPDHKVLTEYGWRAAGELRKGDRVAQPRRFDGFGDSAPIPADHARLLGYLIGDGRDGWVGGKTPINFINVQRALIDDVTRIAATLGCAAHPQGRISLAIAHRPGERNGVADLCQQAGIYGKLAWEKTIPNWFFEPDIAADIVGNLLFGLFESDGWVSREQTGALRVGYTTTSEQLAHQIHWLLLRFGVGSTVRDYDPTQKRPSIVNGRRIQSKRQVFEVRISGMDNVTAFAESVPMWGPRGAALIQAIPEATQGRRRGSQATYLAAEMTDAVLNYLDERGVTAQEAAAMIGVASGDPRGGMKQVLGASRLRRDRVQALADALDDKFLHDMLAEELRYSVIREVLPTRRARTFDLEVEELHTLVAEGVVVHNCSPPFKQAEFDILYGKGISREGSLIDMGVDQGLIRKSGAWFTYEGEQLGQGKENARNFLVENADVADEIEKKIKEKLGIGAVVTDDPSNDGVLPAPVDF
YopH PTP inh = YopH (Yersinia) phosphatase inhibition; fluorescence Ex485/Em525; inhibition, %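 (about 10 µM by stock and volumes)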; 140,000 compounds, 0.16% hits; AID 898;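 active means inhibition of 50% or more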;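 further: controls were vehicle for no effect and minimum signal wells for full effect; inactives centre near -20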
Arbovirus inh = blocks arbovirus infection. arbovirus infection cell-based antiviral screen. inhibition, % at 10 µM. 200,000 compounds, 0.37% hits. AID 1251;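 active means inhibition from about 30%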;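 further: bluetongue infection of BSR cells; cell survival read as ATP light after 72 h; 0% = infected wells without compound and 100% = uninfected wells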
Mtb betalactam = beta-lactam sensitization of Mtb H37Rv. M. tuberculosis H37Rv growth with meropenem, percent inhibition; hits of this screen are not shown here. inhibition, % at 25 µM. 330,000 compounds, 0.27% hits;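 active means about 74% or more and at least 40 points above the plate without the antibiotic, then above 30% in a dose series; inconclusive means first-round hits that could not be retested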;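 further: growth measured after seven days incubation then overnight dye step; 0% = bacteria only wells and 100% = bacteria with antibiotic; twin plates without the antibiotic show which effects depend on it; some results filed as inactive read as strong as hits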
Arbovirus inh repeat = second read-out of Arbovirus inh, no call of its own (marks repeat the call); inhibition, %; measured here: 10K subset replicate screen; many hits read low in the repeat;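 first of two repeat runs on a subset; 0% = infected and 100% = uninfected wells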
* hit, by the source's call; ? = inconclusive; . = no result given. Some of the compounds tested; rates above refer to the full screens.

SMILES | Mtb H37Rv | RecA intein inh | YopH PTP inh | Arbovirus inh | Mtb betalactam | others
CCOC(=O)C1=C(CBr)NC(=O)NC1C (stereo not given) | 5.2% | 1.9 | . | 4.3 | -1.8
Cc1[nH]c(=O)[nH]c(=O)c1Sc1ccccc1[N+](=O)[O-] | . | -0.8 | . | . | -3.2
O=C(COc1ccccc1)NCC(=O)NC1CCCCC1 | 0.7% | -1.0 | . | 9.7 | -2.5
O=C(NCCc1ccccc1)C1CCN(S(=O)(=O)c2cccc3nonc23)CC1 | -0.1% | 0.6 | -11.0 | 5.0 | 1.9
O=c1[nH]c2ccc(Br)cc2c(-c2ccccc2)c1CN1CCOCC1 | 6.0% | 18.1 | 19.2 | -44.9 | -5.1
CCOC(=O)c1cc(-c2cccnc2)nn1-c1ccccc1C | -5.0% | 1.7 | . | 9.2 | -6.3
CCOC(=O)C(=CNc1cc(C)nn1-c1ccc(Cl)cc1)C(=O)OCC | 11.9% | 2.5 | -19.2 | 6.7 | 0.0
O=S(=O)(NCC1(N2CCOCC2)CCCCC1)c1ccccc1Cl | . | 0.0 | . | . | -12.8
COc1ccc(/C=N/NC(=S)N[C@H]2CC3CCC2C3)cc1 (stereo not given in full) | -5.9% | 0.2 | . | . | -4.7
Cc1ccc(NC2CCCCC2NS(=O)(=O)c2ccccc2)c(C)c1 (stereo not given) | . | -1.7 | . | . | -1.7
CN(C)c1ccc(/C=C/c2nc3ccccc3c(=O)n2-c2ccc(C(=O)O)cc2)cc1 | . | -8.2 | . | . | 1.3
COc1c2occc2cc2ccc(=O)oc12 | 0.1% | . | -10.2 | -1.0 | -3.1

Gathered by group, the compounds so far containing a Cl atom.
SMILES | Mtb H37Rv | RecA intein inh | YopH PTP inh | Arbovirus inh | Mtb betalactam | others
CCOC(=O)C(=CNc1cc(C)nn1-c1ccc(Cl)cc1)C(=O)OCC | 11.9% | 2.5 | -19.2 | 6.7 | 0.0
O=S(=O)(NCC1(N2CCOCC2)CCCCC1)c1ccccc1Cl | . | 0.0 | . | . | -12.8

(list continues)
SMILES | Mtb H37Rv | RecA intein inh | YopH PTP inh | Arbovirus inh | Mtb betalactam | others
O=C(CCNC(=O)c1ccco1)Nc1ccc(OC(F)(F)F)cc1 | . | -0.4 | . | . | -3.4
CC(/C=C/c1ccco1)=N\NC(=O)c1cc(Cl)ccc1O | ? | 2.2 | . | 4.6 | 97.8
Cc1nc(C)c(Oc2cccc(C(F)(F)F)c2)c(=O)[nH]1 | -5.6% | 1.9 | . | . | -9.1
N#CC1=C(N)NC(=S)C(C(N)=O)C1c1ccccc1F (stereo not given) | -0.6% | -6.1 | . | . | -8.1
COc1ccccc1N1CCN(/N=C/c2ccc(Cl)c([N+](=O)[O-])c2)CC1 | . | 10.6 | . | . | 7.4
O=C(c1cnccn1)N(c1ccccc1)C1(C(=O)NC2CCCCC2)CCCCC1 | 3.0% | 2.2 | -31.8 | 10.7 | -12.2 | Arbovirus inh repeat=11.4
COc1ccc(N=Nc2ccc(O)c(P(=O)(c3ccccc3)c3ccccc3)c2)cc1 | 4.8% | -2.3 | . | . | -4.9
CCOC(=O)c1ccc(NC(=O)c2nc[nH]c2C(=O)N2CCc3ccccc3C2)cc1 | 3.5% | -0.1 | . | . | -9.1
Cn1cc(S(=O)(=O)NCc2ccc(Cl)cc2)c(=O)n(C)c1=O | -1.1% | -4.4 | . | . | 0.9
COc1ccc(CN2CCNC(=O)C2CC(=O)NC2CC(C)(C)CC(C)(C)C2)cc1OC (stereo not given) | . | -1.9 | . | . | -0.8
Cc1ccc(C(=C2C3C=CC2C2C(=O)NC(=O)C32)c2ccc(C)cc2)cc1 (stereo not given) | -0.3% | -0.2 | -24.8 | -44.0 | -1.8
O=C1CC(c2cccc(Cl)c2)CC(O)=C1C=Nc1ccccc1 (stereo not given) | 10.7% | 1.3 | -44.6 | 19.0 | -4.6
CCCCNC(=O)Oc1c(Br)cc2sc(=O)oc2c1Br | 2.8% | . | . | . | -1.7
CCn1c(SCC(=O)NNC(=O)c2ccccc2)nnc1-c1ccco1 | 3.0% | -1.5 | . | -5.9 | -1.3
CN(C)c1ccc(NC(=S)c2ccccn2)cc1 | 77.2% | -5.8 | -35.6 | -9.7 | 64.1 | Arbovirus inh repeat=-2.4
O=C(Nc1ccc(Cl)cc1)c1ccc(OC2CSC2)cc1 | 5.4% | 1.4 | . | 19.5 | 3.5
COc1cccc(N2CCN(C(=O)c3ccc(-c4ccccc4)cc3)CC2)c1 | . | 1.5 | . | . | -9.6
O=C(CSc1nnc(-c2ccccn2)o1)Nc1ccccc1C(F)(F)F | . | -2.8 | . | . | 2.4
Cc1ccc(C2CC(c3ccc(Br)cc3)=NN2C(=O)CSC2=NN3CCCC(=O)N=C3S2)cc1 (stereo not given) | . | -1.1 | . | . | -3.5
CSc1nccc(-c2c(-c3ccc(Cl)cc3)noc2C)n1 | -2.0% | 11.1 | . | . | 2.3
CNC(=O)NC(=O)C(C)Oc1ccccc1F (stereo not given) | -1.7% | -0.1 | . | 7.7 | -2.0
COCCCn1c(SCc2nnc(-c3ccc(OC)c(OC)c3)o2)nc2ccccc2c1=O | 7.5% | 0.5 | -25.7 | -1.6 | 8.2
CCO[C@H]1OC(C(=O)NCc2ccccc2)=C[C@@H](C(C)(C)C)[C@@H]1CCCO | 3.4% | 1.6 | . | . | -3.7
CCC(Sc1nc2ccccc2[nH]1)C(=O)Nc1ccc(NC(C)=O)cc1 (stereo not given) | 3.7% | 0.9 | . | 0.3 | -2.4
O=c1[nH][nH]c(-c2ccccc2O)c1C(C[N+](=O)[O-])c1cccc(Cl)c1 (stereo not given) | 7.89µM* | 10.9 | -32.4 | -33.5 | 100.2
CCCCN(CC(=O)Nc1c(C)cccc1CC)C(=O)SCC | -0.2% | 0.1 | -12.8 | -2.1 | 1.0
CNC(=O)N1c2ccccc2C=Cc2ccccc21 | . | -3.4 | . | . | -4.1
CN(C)c1ccc(P(=O)(Nc2cccc(C(F)(F)F)c2)N2CCOCC2)c(NC(=O)c2cccs2)c1 (stereo not given) | ? | . | -29.6 | 7.3 | 4.9
COc1ccc(C(OCC(O)CNCCc2ccc(S(N)(=O)=O)cc2)c2ccc(OC)cc2)cc1 (stereo not given) | . | -4.1 | . | . | -2.8
Cc1c(NS(=O)(=O)c2ccc(Cl)c(C(=O)OCC(=O)NCc3ccco3)c2)c(=O)n(-c2ccccc2)n1C | -0.1% | 4.4 | . | 14.7 | 7.3
COc1ccc(S(=O)(=O)N(C)CC(=O)NCCC2=CCCCC2)cc1C | 3.3% | 0.0 | 12.9 | -1.1 | -12.4
O=C(Cn1cc(C(F)(F)F)cc(Cl)c1=O)NCCc1ccccc1 | 16.9% | -1.4 | -15.6 | -9.0 | -0.8
CC(=O)Nc1ccc(S(=O)(=O)N(C)CC(=O)Nc2ccccc2N2CCOCC2)cc1 | -9.2% | -7.2 | -45.7 | 7.8 | 1.6
COc1cc(OC)c(C(=O)OCC(=O)NCCC2=CCCCC2)cc1OC | . | -0.3 | . | . | 1.9
O=C1NC(c2ccccc2)=C(c2nc3ccccc3s2)C(c2ccccc2)N1 (stereo not given) | 27.4% | 29.6 | 3.2 | 2.9 | ?
CC(C)c1nc2n[nH]c(N)c2c2c1CSC(C)(C)C2 | -4.1% | 8.3 | -3.2 | 17.1 | 6.6

The last two compounds of the part above open the next one:
SMILES | Mtb H37Rv | RecA intein inh | YopH PTP inh | Arbovirus inh | Mtb betalactam | others
O=C1NC(c2ccccc2)=C(c2nc3ccccc3s2)C(c2ccccc2)N1 (stereo not given) | 27.4% | 29.6 | 3.2 | 2.9 | ?
CC(C)c1nc2n[nH]c(N)c2c2c1CSC(C)(C)C2 | -4.1% | 8.3 | -3.2 | 17.1 | 6.6
Cc1ccc(S(=O)(=O)NC(=O)Nc2ccccc2F)cc1 | -8.2% | . | -0.7 | -10.4 | -1.8
COc1cc2c(cc1OC)-c1cc(N3CCCc4ccccc43)nc(=O)n1CC2 | -8.2% | 3.0 | -26.2 | 8.1 | 25.1
Cc1cc(-c2n[nH]c(=S)n2Cc2ccco2)n(C)n1 | 4.8% | 1.0 | -34.8 | 2.5 | 0.7
O=C(Nc1ccccc1)N1CCC(C(=O)N2CCCC(C(F)(F)F)C2)CC1 (stereo not given) | . | 2.9 | . | . | -3.4
CCOC(=O)CC(NC(=O)c1ccc(C)cc1)c1ccc(C)cc1 (stereo not given) | -6.1% | 0.5 | 1.2 | -0.2 | -4.6
CCN(C(=S)Nc1ccc(C(C)=O)cc1)C1CCCCC1 | -1.6% | 0.6 | . | 19.5 | -6.0
CCCCNC(=O)CCn1c(=O)c2ccccc2n(Cc2cc(C)ccc2C)c1=O | -0.7% | -2.0 | -41.6 | -13.4 | -2.1
Cc1ccc(-n2nc(C(=O)NCc3ccco3)c3c4ccccc4n(C)c3c2=O)cc1 | . | -0.3 | -27.9 | 1.6 | 21.1
CCCN1CCN(C(=O)c2nn(-c3ccc(OC)cc3)c(=O)c3c2c2ccccc2n3C)CC1 | 7.0% | -2.3 | . | -5.4 | -6.3
CN(CC(=O)Nc1ccc(F)cc1)c1ccc(S(=O)(=O)N2CCCC2)cn1 | 3.8% | -0.2 | . | -1.4 | -4.6
CC(C)(C)C1CCC(OCC(O)CN2CCCC2)CC1 (stereo not given) | 1.1% | -3.5 | . | -16.8 | -1.9
CSc1nnc(Cn2c(=O)sc3ccccc32)n1-c1ccccc1 | -5.5% | 1.1 | -33.7 | -1.1 | -0.2 | Arbovirus inh repeat=0.4
O=C(N/N=C/c1ccc(O)c(O)c1)c1ccc(CSc2cccc3cccnc23)cc1 | 0.4% | -2.6 | -1.2 | -11.7 | -3.2
O=C1C(Cc2ccc(O)cc2)NC(=S)N1Cc1ccccc1 (stereo not given) | -2.4% | -1.3 | . | . | -6.3
CCSc1nc(=O)n(-c2ccccc2)c(C)c1C(C)=S | -10.1% | 26.3 | 32.1 | -2.6 | 2.5
CC1=C(C(N)=O)C(c2ccccc2)n2nc(-c3cccc(C)c3)nc2N1 (stereo not given) | -6.9% | 2.5 | -55.3 | -3.0 | -2.9 | Arbovirus inh repeat=0.6
Cc1ccc(C2C(C(=O)O)c3ccccc3C(=O)N2C)c(C)c1 (stereo not given) | 0.6% | 1.2 | -32.9 | 13.1 | 7.6
Oc1c(C=Nc2cccc3nsnc23)ccc2ccccc12 | 2.4% | 10.1 | 2.4 | -9.4 | -8.2
CCS(=O)(=O)N1CCC(C(=O)N2CCN(Cc3ccccc3)CC2)CC1 | 1.2% | -0.5 | . | 7.0 | -3.4
O=C(O)CCCN1C(=O)/C(=C/C=C/c2ccco2)SC1=S | 5.8% | 6.5 | . | . | 1.1
CCOC(=O)CSC1=C(C#N)C(c2ccccc2OCC)C(C#N)C(=O)N1 (stereo not given) | -2.2% | -2.4 | -42.9 | -2.4 | 14.4
O=C(N/C=N/OCc1ccc(Cl)cc1Cl)NOCc1c(Cl)cccc1Cl | -11.3% | 1.6 | -4.5 | -6.5 | 4.8
O=C1C2C3CCC(O3)C2C(=O)N1c1cccc(O)c1 (stereo not given) | . | -3.5 | . | . | 3.1
Cc1cccc(NC(=O)C(C)OC(=O)c2ccccc2NS(=O)(=O)c2cc(C)c(C)c([N+](=O)[O-])c2)c1 (stereo not given) | 3.0% | 4.2 | -26.4 | 17.3 | -0.6
COC(=O)C1=NN(C(=O)c2ccc(Br)cc2)C(O)(C(C)(C)C)C1 (stereo not given) | 1.5% | . | . | 4.6 | .
CC1CCN(C(=O)c2ccc3c(c2)NC(=O)CN3)CC1 | . | -1.7 | . | . | -3.5

Reprinted at random: 5 records from the list
SMILES | Mtb H37Rv | RecA intein inh | YopH PTP inh | Arbovirus inh | Mtb betalactam | others
O=C1C(Cc2ccc(O)cc2)NC(=S)N1Cc1ccccc1 (stereo not given) | -2.4% | -1.3 | . | . | -6.3
Oc1c(C=Nc2cccc3nsnc23)ccc2ccccc12 | 2.4% | 10.1 | 2.4 | -9.4 | -8.2
CCS(=O)(=O)N1CCC(C(=O)N2CCN(Cc3ccccc3)CC2)CC1 | 1.2% | -0.5 | . | 7.0 | -3.4
O=C1C2C3CCC(O3)C2C(=O)N1c1cccc(O)c1 (stereo not given) | . | -3.5 | . | . | 3.1
CC1=C(C(N)=O)C(c2ccccc2)n2nc(-c3cccc(C)c3)nc2N1 (stereo not given) | -6.9% | 2.5 | -55.3 | -3.0 | -2.9 | Arbovirus inh repeat=0.6
